FGF22 binding – binders of recombinant human FGF22 by thermal shift; SYPRO orange fluorescence; percent of sucrose octasulfate shift, DMSO zero; calls only at 9.99 µM; 340,000 compounds, 1.5% hits;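 active = melting point raised past a set limit in the mean and every replicate; three in four hits are not shown here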
Target sequence (Q9HCT0 whole entry, looked up): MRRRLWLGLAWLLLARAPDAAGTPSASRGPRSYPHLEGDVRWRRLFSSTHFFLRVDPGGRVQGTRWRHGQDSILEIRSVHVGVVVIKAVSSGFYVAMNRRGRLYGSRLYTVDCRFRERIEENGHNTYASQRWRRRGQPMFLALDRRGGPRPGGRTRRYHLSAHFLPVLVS
rRNA inh HTS – inhibitors of bacterial rRNA selective over humanized ribosomes; E. coli WT GFP vs humanized-ribosome RFP mutants, fluorescence, 24 h; hits give low values; DMSO median 0, no signal -100; GFP signal change (wild-type ribosome), % (concentration not given with the values); 350,000 compounds, 1.6% hits; AID 720706;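 active = significant combined selectivity score with lowered wild-type GFP, culture density cut under 30%, mutant RFP and density less affected; inactive = any of these conditions unmet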; note: one replicate is shown; some compounds called inactive have numbers as strong as hits
MLL AF4-AF9 inh – blocks AF4 peptide binding to human AF9 | inhibition, % at 10 µM | AlphaScreen, biotin-AF4 peptide binding to FLAG-AF9 | 350,000 compounds, 0.47% hits | AID 651704 | P42568;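 active = every replicate reaching a set inhibition limit, whatever the replicate mean, cut at about 25% in these data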;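 note: 0% = plate neutral control median and 100% = total signal loss; the record names both 10 and 1 µM as test concentration; the first replicate is given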
Target sequence (P42568 whole entry, looked up): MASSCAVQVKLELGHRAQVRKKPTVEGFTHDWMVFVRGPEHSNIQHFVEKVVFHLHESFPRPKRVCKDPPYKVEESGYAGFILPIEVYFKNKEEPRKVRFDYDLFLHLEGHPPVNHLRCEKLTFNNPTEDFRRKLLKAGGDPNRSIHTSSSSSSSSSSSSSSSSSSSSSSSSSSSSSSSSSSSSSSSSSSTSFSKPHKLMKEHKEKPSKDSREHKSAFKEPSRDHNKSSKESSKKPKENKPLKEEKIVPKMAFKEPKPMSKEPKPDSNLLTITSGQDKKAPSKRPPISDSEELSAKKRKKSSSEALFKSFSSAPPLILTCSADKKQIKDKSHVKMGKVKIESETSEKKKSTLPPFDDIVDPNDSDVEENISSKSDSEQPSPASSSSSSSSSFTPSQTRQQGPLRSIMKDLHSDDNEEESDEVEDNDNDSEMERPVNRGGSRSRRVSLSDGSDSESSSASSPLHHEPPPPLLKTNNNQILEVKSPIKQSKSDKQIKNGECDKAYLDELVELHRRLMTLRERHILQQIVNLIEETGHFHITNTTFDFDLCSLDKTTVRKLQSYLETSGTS
rRNA inh HTS OD600 – also measured in rRNA inh HTS; calls as there; OD600 change, %; measured here: OD600 growth;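 optical density of the mix in the first replicate; 0 = DMSO median and -100 = no signal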
rRNA inh HTS RFP – second read-out of rRNA inh HTS, no call of its own (marks repeat the call); RFP signal change, %; measured here: RFP humanized mutant strains;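 first replicate; 0 = DMSO median and -100 = no signal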
An asterisk follows results filed as active. The list is partial. The share of hits here may be higher or lower than overall.

What do the screens show for `C[C@@H]1CN([C@H](C)CO)C(=O)c2cccc(NS(=O)(=O)c3ccccc3)c2O[C@@H]1CN(C)CC1CCCCC1`?
FGF22 binding: inactive; rRNA inh HTS: 3.5; MLL AF4-AF9 inh: 1.1; rRNA inh HTS OD600: 0.8; rRNA inh HTS RFP: -2.6

What do the screens show for `C[C@@H]1CN([C@@H](C)CO)C(=O)Cc2cc(NC(=O)Nc3ccc4c(c3)OCO4)ccc2O[C@H]1CN(C)Cc1ccccc1`?
FGF22 binding: inactive; rRNA inh HTS: -17.7; MLL AF4-AF9 inh: 13.9; rRNA inh HTS OD600: -47.3; rRNA inh HTS RFP: 31.8

Results for CO[C@H]1CN(C)C(=O)c2ccc(NC(=O)C3CCOCC3)cc2OC[C@H](C)N(Cc2nccs2)C[C@H]1C ?
FGF22 binding: inactive; rRNA inh HTS: -1.8; MLL AF4-AF9 inh: 0.6; rRNA inh HTS OD600: 0.0; rRNA inh HTS RFP: -2.3

How did COc1ccc(CN(C)C[C@H]2OCCCC[C@H](C)Oc3ccc(NS(=O)(=O)c4cn(C)cn4)cc3C(=O)N([C@@H](C)CO)C[C@@H]2C)cc1 do in these assays?
FGF22 binding: inactive; rRNA inh HTS: -1.3; MLL AF4-AF9 inh: -5.2; rRNA inh HTS OD600: 5.7; rRNA inh HTS RFP: 1.1

How did C[C@H]1CN([C@@H](C)CO)C(=O)CCCn2cc(nn2)CO[C@@H]1CN(C)S(=O)(=O)c1ccccc1 do in these assays?
FGF22 binding: inactive; rRNA inh HTS: 0.0; MLL AF4-AF9 inh: 2.6; rRNA inh HTS OD600: 1.5; rRNA inh HTS RFP: -1.4

Results for CCCS(=O)(=O)NC(=O)C1(C)CCCN(C(=O)COc2ccccc2)C1 (centres undefined) ?
FGF22 binding: inactive; rRNA inh HTS: 7.8; MLL AF4-AF9 inh: -3.1; rRNA inh HTS OD600: 4.0; rRNA inh HTS RFP: -1.1

How did CCC(=O)Nc1ccc2c(c1)OC[C@H](C)N(Cc1ccccc1)C[C@H](C)[C@@H](OC)CN(C)C2=O do in these assays?
FGF22 binding: inactive; rRNA inh HTS: -5.9; MLL AF4-AF9 inh: -7.9; rRNA inh HTS OD600: -7.4; rRNA inh HTS RFP: 3.4

How did OCC[C@@H]1C[C@H](O)[C@@H](O)[C@@]2(OCc3ccc(CO)cc32)O1 do in these assays?
FGF22 binding: inactive; rRNA inh HTS: 6.9; MLL AF4-AF9 inh: -2.7; rRNA inh HTS OD600: 9.1; rRNA inh HTS RFP: -6.7

What do the screens show for `C=CCN1C[C@H](COC(=O)CSc2ccccc2)Oc2cccc(F)c2S1(=O)=O`?
FGF22 binding: inactive; rRNA inh HTS: -4.7; MLL AF4-AF9 inh: 0.1; rRNA inh HTS OD600: -5.5; rRNA inh HTS RFP: 6.4

How did COc1cc(C(O)c2nc(-c3cc(F)cc(F)c3)cs2)ccc1F (centres undefined) do in these assays?
FGF22 binding: inactive; rRNA inh HTS: -34.0; MLL AF4-AF9 inh: -8.4; rRNA inh HTS OD600: -44.9; rRNA inh HTS RFP: -10.0

Results for Cc1ccc(CN2C(=O)C(F)(F)Oc3ccc(C)cc32)cc1 ?
FGF22 binding: inactive; rRNA inh HTS: 7.1; MLL AF4-AF9 inh: -7.4; rRNA inh HTS OD600: -2.2; rRNA inh HTS RFP: -0.7

How did C[C@H](CO)N1C[C@H](C)[C@@H](CN(C)S(=O)(=O)c2cn(C)cn2)Oc2ccc(NC(=O)CCC(F)(F)F)cc2C1=O do in these assays?
FGF22 binding: inactive; rRNA inh HTS: 0.0; MLL AF4-AF9 inh: -3.0; rRNA inh HTS OD600: -3.4; rRNA inh HTS RFP: -1.9

The final three records of the section above lead into the next:
How did COc1cc(C(O)c2nc(-c3cc(F)cc(F)c3)cs2)ccc1F (centres undefined) do in these assays?
FGF22 binding: inactive; rRNA inh HTS: -34.0; MLL AF4-AF9 inh: -8.4; rRNA inh HTS OD600: -44.9; rRNA inh HTS RFP: -10.0

Results for Cc1ccc(CN2C(=O)C(F)(F)Oc3ccc(C)cc32)cc1 ?
FGF22 binding: inactive; rRNA inh HTS: 7.1; MLL AF4-AF9 inh: -7.4; rRNA inh HTS OD600: -2.2; rRNA inh HTS RFP: -0.7

How did C[C@H](CO)N1C[C@H](C)[C@@H](CN(C)S(=O)(=O)c2cn(C)cn2)Oc2ccc(NC(=O)CCC(F)(F)F)cc2C1=O do in these assays?
FGF22 binding: inactive; rRNA inh HTS: 0.0; MLL AF4-AF9 inh: -3.0; rRNA inh HTS OD600: -3.4; rRNA inh HTS RFP: -1.9

How did COCCCNC(=O)C[C@@H]1C[C@@]2(C(=O)OC)CCCCC=C2N(Cc2ccco2)C1=O do in these assays?
FGF22 binding: inactive; rRNA inh HTS: 19.2; MLL AF4-AF9 inh: -0.4; rRNA inh HTS OD600: 24.7; rRNA inh HTS RFP: -0.1

What do the screens show for `COc1ccc(NC(=O)Nc2ccc3c(c2)C(=O)N([C@H](C)CO)C[C@@H](C)[C@H](CN(C)S(=O)(=O)c2ccccc2)OCCCC[C@@H](C)O3)cc1`?
FGF22 binding: inactive; rRNA inh HTS: -0.1; MLL AF4-AF9 inh: 1.6; rRNA inh HTS OD600: 2.2; rRNA inh HTS RFP: -0.3

Results for CCNC(=O)C[C@@H]1CC[C@@H]2[C@H](COC[C@@H](O)CN2C(=O)Nc2ccc(Cl)c(Cl)c2)O1 ?
FGF22 binding: inactive; rRNA inh HTS: -59.5; MLL AF4-AF9 inh: 1.4; rRNA inh HTS OD600: -77.4; rRNA inh HTS RFP: -20.2

What do the screens show for `O=C(C[C@@H]1C[C@@H]2c3cc(NC(=O)C4CCC4)ccc3O[C@@H]2[C@H](CO)O1)NCc1ccccn1`?
FGF22 binding: inactive; rRNA inh HTS: 1.6; MLL AF4-AF9 inh: -3.7; rRNA inh HTS OD600: -0.2; rRNA inh HTS RFP: 0.1

How did C[C@@H]1CCCCO[C@@H](CN(C)C(=O)CCCN(C)C)[C@H](C)CN([C@@H](C)CO)C(=O)c2cc(NC(=O)Cc3ccccc3)ccc2O1 do in these assays?
FGF22 binding: inactive; rRNA inh HTS: 7.1; MLL AF4-AF9 inh: -3.9; rRNA inh HTS OD600: 1.8; rRNA inh HTS RFP: -1.7

What do the screens show for `CO[C@H]1CN(C)C(=O)c2ccc(NC(=O)C3CCCC3)cc2OC[C@@H](C)N(CCC(F)(F)F)C[C@@H]1C`?
FGF22 binding: inactive; rRNA inh HTS: -2.7; MLL AF4-AF9 inh: 0.0; rRNA inh HTS OD600: -9.8; rRNA inh HTS RFP: 0.3

Results for Cc1ccc(S(=O)(=O)Nc2cccc3c2O[C@@H](CN(C)C(=O)Nc2ccccc2)[C@@H](C)CN([C@H](C)CO)C3=O)cc1 ?
FGF22 binding: inactive; rRNA inh HTS: -2.5; MLL AF4-AF9 inh: -0.5; rRNA inh HTS OD600: -11.6; rRNA inh HTS RFP: -1.1

Results for C[C@@H]1CN([C@@H](C)CO)C(=O)c2ccccc2-c2ccccc2CO[C@@H]1CN(C)C(=O)c1ccncc1 ?
FGF22 binding: inactive; rRNA inh HTS: 1.5; MLL AF4-AF9 inh: 1.1; rRNA inh HTS OD600: -5.3; rRNA inh HTS RFP: 1.6

What do the screens show for `O=C(Cc1ccccn1)NCC[C@H]1CC[C@H](NC(=O)c2ccccc2F)[C@H](CO)O1`?
FGF22 binding: inactive; rRNA inh HTS: 5.2; MLL AF4-AF9 inh: -1.3; rRNA inh HTS OD600: 5.7; rRNA inh HTS RFP: -0.9

How did COc1ccc(NC(=O)N[C@@H]2CC[C@H](CCNC(=O)c3ccccc3F)O[C@@H]2CO)cc1 do in these assays?
FGF22 binding: inactive; rRNA inh HTS: -2.9; MLL AF4-AF9 inh: -0.7; rRNA inh HTS OD600: -4.6; rRNA inh HTS RFP: -0.2

What do the screens show for `C[C@H](CO)N1C[C@H](C)[C@@H](CN(C)C(=O)CC2CC2)Oc2ncc(C#CC3(O)CCCC3)cc2C1=O`?
FGF22 binding: inactive; rRNA inh HTS: 5.1; MLL AF4-AF9 inh: -3.8; rRNA inh HTS OD600: 7.2; rRNA inh HTS RFP: 1.7

How did C[C@@H]1CN([C@H](C)CO)C(=O)Cc2cc(NC(=O)Nc3ccc(C(F)(F)F)cc3)ccc2O[C@H]1CN(C)Cc1ccc(C(F)(F)F)cc1 do in these assays?
FGF22 binding: inactive; rRNA inh HTS: 3.5; MLL AF4-AF9 inh: -1.7; rRNA inh HTS OD600: 6.7; rRNA inh HTS RFP: 2.0

Results for COCC#Cc1ccc2c(c1)O[C@@H](CN(C)Cc1ccccc1F)[C@H](C)CN([C@@H](C)CO)S2(=O)=O ?
FGF22 binding: inactive; rRNA inh HTS: -8.4; MLL AF4-AF9 inh: 2.2; rRNA inh HTS OD600: -30.6; rRNA inh HTS RFP: -2.5

How did COc1ccccc1C#Cc1ccc([C@H]2[C@H](CO)N3CCCCN(CCC(F)(F)F)C[C@@H]23)cc1 do in these assays?
FGF22 binding: inactive; rRNA inh HTS: -57.9; MLL AF4-AF9 inh: 9.6; rRNA inh HTS OD600: -71.2; rRNA inh HTS RFP: -12.3

How did C[C@H]1CN([C@@H](C)CO)C(=O)c2cccc(NC(=O)Nc3ccc(C(F)(F)F)cc3)c2O[C@@H]1CN(C)C(=O)Nc1ccccc1 do in these assays?
FGF22 binding: inactive; rRNA inh HTS: -0.1; MLL AF4-AF9 inh: 3.4; rRNA inh HTS OD600: 0.3; rRNA inh HTS RFP: 0.8

How did COCCNC(=O)C[C@H]1C[C@H]2c3cc(NC(=O)CN(C)C)ccc3O[C@H]2[C@H](CO)O1 do in these assays?
FGF22 binding: inactive; rRNA inh HTS: 1.3; MLL AF4-AF9 inh: 0.9; rRNA inh HTS OD600: 3.6; rRNA inh HTS RFP: 0.1

How did CCCNC(=O)N1CC2(CCN(C(=O)c3cnccn3)CC2)c2c([nH]c3cc(OC)ccc23)[C@@H]1CO do in these assays?
FGF22 binding: inactive; rRNA inh HTS: -1.1; MLL AF4-AF9 inh: -0.6; rRNA inh HTS OD600: 2.5; rRNA inh HTS RFP: -1.9

How did O=C(c1ccccc1)N1C[C@@H]2[C@H](c3ccccc31)[C@@H](CO)N2C(=O)Nc1ccccc1Cl do in these assays?
FGF22 binding: inactive; rRNA inh HTS: 2.1; MLL AF4-AF9 inh: 1.6; rRNA inh HTS OD600: -9.4; rRNA inh HTS RFP: 0.3

How did COc1ccc(C2=Nc3ccccc3N(C(=O)c3cccnc3)C2C(=O)NC(C)(C)C)cc1 (centres undefined) do in these assays?
FGF22 binding: inactive; rRNA inh HTS: 1.7; MLL AF4-AF9 inh: 3.3; rRNA inh HTS OD600: 0.6; rRNA inh HTS RFP: 3.0

How did CO[C@H]1CN(C)C(=O)c2ccc(NC(=O)C3CCOCC3)cc2OC[C@@H](C)N(Cc2cccnc2)C[C@H]1C do in these assays?
FGF22 binding: inactive; rRNA inh HTS: -1.6; MLL AF4-AF9 inh: 0.8; rRNA inh HTS OD600: -0.3; rRNA inh HTS RFP: -1.3

Results for O=C(C[C@@H]1CC[C@H](NC(=O)CN2CCOCC2)[C@H](CO)O1)NCc1cccc(F)c1 ?
FGF22 binding: inactive; rRNA inh HTS: 7.8; MLL AF4-AF9 inh: -0.5; rRNA inh HTS OD600: 5.4; rRNA inh HTS RFP: 1.6

Results for O=C1NC[C@@H](CCCCN2CCN(Cc3ccccc3)C(=O)C2=O)N(CCC2CCCCC2)C1=O ?
FGF22 binding: inactive; rRNA inh HTS: -2.7; MLL AF4-AF9 inh: -0.5; rRNA inh HTS OD600: -2.1; rRNA inh HTS RFP: 4.7

Results for CCCC#Cc1ccc2c(c1)O[C@@H](CN(C)C)[C@@H](C)CN([C@H](C)CO)S2(=O)=O ?
FGF22 binding: inactive; rRNA inh HTS: 0.0; MLL AF4-AF9 inh: 2.5; rRNA inh HTS OD600: -4.3; rRNA inh HTS RFP: -0.1

How did CN1[C@@H]2c3ccc(-c4ccc(F)cc4)c(=O)n3C[C@@H]2[C@@H](CO)[C@@H]1C(=O)NCCN1CCCCC1 do in these assays?
FGF22 binding: inactive; rRNA inh HTS: 2.6; MLL AF4-AF9 inh: 1.8; rRNA inh HTS OD600: 1.3; rRNA inh HTS RFP: 0.6

Results for CCNC(=O)C[C@@H]1CC[C@H](NC(=O)NC2CCCCC2)[C@H](CO)O1 ?
FGF22 binding: inactive; rRNA inh HTS: -0.3; MLL AF4-AF9 inh: -0.1; rRNA inh HTS OD600: 0.0; rRNA inh HTS RFP: -4.9

How did C[C@@H](NC(=O)C[C@@H]1CC[C@H]2[C@@H](COC[C@@H](O)CN2C(=O)Nc2ccccc2)O1)c1ccccc1 do in these assays?
FGF22 binding: inactive; rRNA inh HTS: -1.0; MLL AF4-AF9 inh: -2.3; rRNA inh HTS OD600: 7.9; rRNA inh HTS RFP: -2.6

What do the screens show for `CN(C)c1ccc2c(c1)[C@H]1C[C@H](CC(=O)NCc3ccccc3)O[C@H](CO)[C@H]1O2`?
FGF22 binding: inactive; rRNA inh HTS: 1.1; MLL AF4-AF9 inh: 4.4; rRNA inh HTS OD600: 2.1; rRNA inh HTS RFP: 3.8

Screens from PubChem.
